Sa growth 42C = blocks Staphylococcus aureus growth; S. aureus RN4220 growth, OD600, 20 h, 42 °C; active compounds read low; relative growth, % (test concentration not listed); actives 0.53% (n = 170,000); AID 720641;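 active = growth at 42 °C up to 50% and 20 or more points under that at 30 °C, or under 10% at both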;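 also: 300 nL library stock went into each well; scaled to the means of positive and negative controls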
GIV Gai3 FP = inhibitors of GIV GBA-motif binding to rat Galpha-i3 | P08753 | Galpha-i3/FITC-GIV peptide fluorescence polarization, 90 min; active compounds read low; scaled: aluminum fluoride 0%, vehicle 100% | percent of control (FP), % (test concentration not listed) | actives 0.42% (n = 210,000) | AID 1224905;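 active = replicate mean at 85% of control or lower, very high polarization wells dropped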;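 also: lower values mean more displacement of the GIV peptide from Galpha-i3; wells of about 15 µL received 100 nL stock; the first replicate is given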
Target sequence (P08753 whole entry, looked up): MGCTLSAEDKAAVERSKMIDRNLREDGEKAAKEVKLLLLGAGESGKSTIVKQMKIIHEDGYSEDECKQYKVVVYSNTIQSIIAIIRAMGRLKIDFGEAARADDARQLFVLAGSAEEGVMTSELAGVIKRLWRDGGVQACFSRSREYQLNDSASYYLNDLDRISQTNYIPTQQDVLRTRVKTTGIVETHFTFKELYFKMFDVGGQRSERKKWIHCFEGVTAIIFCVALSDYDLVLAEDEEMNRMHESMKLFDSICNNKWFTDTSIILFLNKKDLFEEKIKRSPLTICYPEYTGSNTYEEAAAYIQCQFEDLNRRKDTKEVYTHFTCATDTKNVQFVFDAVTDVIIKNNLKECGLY
HCMV NEC inh = cytomegalovirus nuclear egress complex inhibition | actives 0.15% (n = 190,000) | HTRF UL50-UL53 interaction, normalized percent inhibition | AID 1918969 | inhibition, % (no concentration beside the values);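 active = both replicates at 50% or more, plus weaker picks with an unusually low signal ratio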;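 also: stock transfer was 100 nL into about 20 µL; 0% = negative control wells and 100% = wells with untagged competitor protein; inactives centre near -12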
Sa growth 42C second temp = second read-out of Sa growth 42C, no call of its own (marks repeat the call); relative growth, %; measured here: growth at 30 °C;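 optical density after 20 h as mean of two plates; 100% = untreated growth and lower means inhibition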
The depositor's hits bear a star; nt = no result given; & = joins results of further samples.

Results follow in this order: Sa growth 42C | Sa growth 42C second temp | GIV Gai3 FP | HCMV NEC inh
COC(=O)Cc1cc(=O)n(C(C)(C)C)[nH]1
  90 | 88 | nt | -3
O=c1cc(Nc2ccccc2)c2ccccc2o1
  101 | 88 | 98 | -4
OCC1(CO)C2C3C4CC5C6C4C2C6C1C53 (configuration not stated)
  92 | 90 | 101 | -27
CC1(C)Cc2cccc(OCC(=O)Nc3ccc(S(=O)(=O)N4CCCC4)cc3)c2O1
  116 | 76 | nt | -2
CC(=O)NC1=NN(C(C)=O)C(C)(CS(=O)(=O)c2ccc(C)c(C)c2)S1 (configuration not stated)
  105 | 94 | 99 | -4
Cc1nc2nc3c(c(Nc4cccc(F)c4)n2n1)CCC3
  nt | nt | 97 | -11
COc1ccc(S(=O)(=O)NCc2nc3nc(C)cc(C)n3n2)cc1
  110 | 94 | 106 | 3
Cc1cccc(-c2cc(-c3ccccc3)nc(SCC(=O)Nc3ccccc3)c2C#N)c1
  107 | 88 | 103 | -25
COC(=O)c1ccc(C2N(Cc3ccccc3)CCN2Cc2ccccc2)cc1
  106 | 89 | nt | 4
CCOc1ccc(NC(=O)CSc2ccnc3c2c(=O)n(C)c(=O)n3C)cc1
  104 | 94 | 97 | -9
Cc1cccc(NC(=O)CSc2nc3ccc(NC(=O)c4cccs4)cc3s2)c1
  91 | 83 | 101 | -28
Cn1nccc1NC(=O)CC(CC(=O)O)c1ccccc1 (configuration not stated)
  99 | 84 | 102 | -24
Cc1noc(C)c1S(=O)(=O)N(c1ccc(Br)cc1F)S(=O)(=O)c1c(C)noc1C
  91 | 92 | 103&106 | -6&-11
COc1ccc(Cl)cc1NC(=O)C(=O)NCc1ccc(Cl)cc1
  103 | 101 | 104 | 18
COc1ccc2oc(=O)c(-c3nc4ccc(OC)cc4[nH]3)cc2c1
  101 | 83 | 119 | -29
NC(=S)Nc1ccc(F)c(Cl)c1
  78 | 92 | nt | -4
COc1ccc(-c2cc(C(F)(F)F)n3nc(-c4ccccc4)cc3n2)cc1OC
  95 | 85 | 107 | -21
COC(=O)c1ccc(NC(=O)CSc2n[nH]c(CC(C)C)n2)cc1
  99 | 80 | 108 | -7
O=C(NCCCN1CCCC1)c1ccc(Cn2c(SCc3ccc(F)cc3)nc3cccnc32)cc1
  nt | nt | 102 | -33
CCN(CC)S(=O)(=O)c1ccc2c(c1)N(CC(=O)NCCCN1CCN(c3ccccc3F)CC1)C(=O)CO2
  106 | 86 | 100 | -19

Full records, looked up by structure.
Record of CC1(C)Cc2cccc(OCC(=O)Nc3ccc(S(=O)(=O)N4CCCC4)cc3)c2O1 = Sa growth 42C = 116; Sa growth 42C second temp = 76; GIV Gai3 FP = nt; HCMV NEC inh = -2
Record of COC(=O)c1ccc(NC(=O)CSc2n[nH]c(CC(C)C)n2)cc1 = Sa growth 42C = 99; Sa growth 42C second temp = 80; GIV Gai3 FP = 108; HCMV NEC inh = -7
Record of CCOc1ccc(NC(=O)CSc2ccnc3c2c(=O)n(C)c(=O)n3C)cc1 = Sa growth 42C = 104; Sa growth 42C second temp = 94; GIV Gai3 FP = 97; HCMV NEC inh = -9

The list continues:
Results follow in this order: Sa growth 42C | Sa growth 42C second temp | GIV Gai3 FP | HCMV NEC inh
CCCOc1ccc(OC(=O)c2cn(-c3ccc(OC)cc3)c(=O)c3ccccc23)cc1
  104 | 97 | 104 | nt
Cc1cccc(C(=O)Nc2ccc(N3CCCC3)c(NC(=O)Nc3cccc(Cl)c3)c2)c1
  nt | nt | 103 | -22
CNC(=O)c1ccc(-c2nc(CN3CCN(S(=O)(=O)N(C)C)CC3)c(C)o2)cc1
  nt | nt | 113 | -14
COc1ccccc1-[n+]1cc([O-])on1
  111 | 85 | nt | -50
Nc1c(C(=O)NCc2ccco2)c2nc3ccccc3nc2n1CCc1ccccc1F
  111 | 62 | 109 | -1
CCCN(CCC)S(=O)(=O)c1nc2nc(C)cc(C)n2n1
  108 | 82 | 109 | 2
Cn1ccnc1Sc1cnc(SCC(=O)c2ccc(Cl)cc2)nc1-c1ccccc1
  96 | 81 | 105 | -40
O=C1NC(=O)C(C(CC(=O)c2ccccc2)c2ccccc2Br)C(=O)N1 (configuration not stated)
  94 | 94 | nt | -2
Cc1ccccc1Cn1c(=O)n(CCC(=O)NCc2ccco2)c(=O)c2sccc21
  94 | 94 | 104 | -15
C=CCn1c2ccccc2n2ncnc12
  98 | 77 | 99 | -6
COc1cc(-c2nc(S(=O)(=O)c3ccc(Br)cc3)c(N3CCOCC3)o2)cc(OC)c1OC
  88 | 86 | 106 | nt
Cc1cc(C)c(S(=O)(=O)Nc2ccc(-c3ccc(N4CCCCCC4)nn3)cc2)c(C)c1
  103 | 98 | 107 | nt
COc1ccc(C2C(C(=O)O)c3ccccc3C(=O)N2Cc2ccco2)cc1 (configuration not stated)
  111 | 105 | 107 | 10
Cn1c(=O)c2c(-c3ccccc3Br)n(C[C@H]3CCCO3)cc2n(C)c1=O
  nt | nt | 98 | 3
CC(C)c1ccc(NC(=O)C2=NNC(=O)CC2)cc1
  112 | 96 | 101 | 30
CSC(=NCc1c(N(C)C)cccc1N(C)C)NS(=O)(=O)c1ccccc1
  103 | 76 | 101 | -10
Cc1nn2c(N3CCOCC3)cc(C(C)(C)C)nc2c1-c1ccc(F)cc1
  nt | nt | 96 | -8
Cc1c(C(=O)NCCc2nc(-c3ccccc3)no2)oc2ccc(Br)cc12
  nt | nt | 103 | -18
O=C1c2sc3nc4n(c(=O)c3c2CCC1Br)CCCCC4 (configuration not stated)
  nt | nt | 96 | -84
Cc1cc(C)c(NC(=O)C(C)OC(=O)c2nccnc2N)c(C)c1 (configuration not stated)
  77 | 94 | nt | -28
CCN1CCCC1CNCC(=O)NC1(C)C2CCC(C2)C1(C)C (configuration not stated)
  89 | 74 | 102 | -6
Cn1c(=O)[nH]c(=O)c2c1nc(CN1CCN(Cc3ccccc3)CC1)n2Cc1ccc(Cl)cc1
  98 | 86 | 104 | 7
CN(C)C1(CNC(=O)COc2ccc(C(C)(C)C)cc2)CCCCC1
  105 | 86 | 104 | -6
COc1cc(NC(=O)NC2(c3ccccc3)CC2)c(OC)cc1Cl
  84 | 78 | nt | -11
Cc1ccc(-n2nc(CO)c(C(=O)NCCc3ccccc3)n2)cc1
  94 | 87 | 99 | -29
CN(C)c1ccc(CNC(=O)CCCN2C(=O)c3cccnc3Oc3ccc(Cl)cc32)cc1
  120 | 86 | 104 | nt
Cc1ccsc1CNCC(O)c1ccccc1 (configuration not stated)
  101 | 90 | 104 | -24
CC1(C(=O)NC2CCCC2)Cn2c(cc3ccsc32)C(=O)N1c1ccc(F)cc1 (configuration not stated)
  nt | nt | 100 | -26
CCCC(C#N)c1ccc(Cl)cc1Cl (configuration not stated)
  114 | 79 | nt | -15
Cc1cccc(C2CC(=O)Nc3c2c(=O)n(C)c(=O)n3C)c1 (configuration not stated)
  105 | 103 | 109 | 8
CCc1cccc(C)c1NC(=O)c1cnn(-c2ccc(OC)cc2)c1C1CCN(C(=O)OC(C)(C)C)CC1
  99 | 83 | 107 | nt
COc1ccc(/C=C2/SC(=Nc3ccccc3Cl)NC2=O)cc1
  nt | nt | 107 | -32
Cc1nc(-c2ccc(-n3nncc3-c3ccc(Br)cc3)cc2)cs1
  91 | 100 | nt | 1
O=C(O)c1ccccc1C(=O)c1ccc(Br)cc1
  157 | 93 | nt | -5
COc1ccc(CCN2CNC(=S)NC2)cc1OC
  101 | 85 | 106 | -31
COc1ccc(CCC(=O)NCc2nc3cccnc3n2Cc2ccc(OC)cc2)cc1
  105 | 90 | 105 | nt
CCOc1ccc(-c2cc(C(=O)NC(C)c3ccc4c(c3)OCCO4)[nH]n2)cc1 (configuration not stated)
  68 | 75 | 102 | nt
CN1CCN(C(=O)C23CC4CC(CC(C4)C2)C3)CC1
  116 | 95 | 103 | 4
O=C(CCCN1C(=O)c2ccccc2C1=O)Nc1ccc(S(=O)(=O)N2CCOCC2)cc1
  90 | 84 | 107 | -5
O=C1N=c2ccc([N+](=O)[O-])cc2=C1c1sc(=Nc2ccccc2)n(-c2ccccc2)c1O
  nt | nt | 102 | -16
Clc1ccc(CSc2nc3ncccc3[nH]2)cc1Cl
  103 | 79 | 101 | -7
COc1ccc(Br)cc1/C=N/c1ncn[nH]1
  116 | 76 | 109 | -4
CC(Oc1ccc(C=C2C(=O)c3ccccc3C2=O)cc1)C(=O)O (configuration not stated)
  84 | 83 | 97 | nt
COc1cc2ncnc(SCC(=O)NN)c2cc1OC
  99 | 86 | 98 | -26
CCOc1ccccc1CNC(=O)c1cccn1-c1nnc(N2CCCCC2)s1
  124 | 100 | 104 | nt
O=C(Nc1cc2c(cc1C(=O)c1ccccc1Br)OCCO2)c1cccc(Cl)c1
  100 | 92 | 103 | 3
COc1ccccc1CNC(=O)c1ccc(NC(=O)N2CC(C)Sc3ccccc32)cc1 (configuration not stated)
  101 | 88 | 102 | -22
CSc1nc2nc(C)cc(=O)n2[nH]1
  90 | 93 | 93 | -6
Cc1cc(/C=N/N2CCN(C)CC2)c(C)n1CC(F)(F)F
  104 | 90 | nt | -5
O=C(CCN1C(=O)S/C(=C\c2cccs2)C1=O)Nc1nccs1
  104 | 91 | nt | -8
CCC(C(=O)Nc1cccc(Cl)c1)N1C(=O)C2(OCCCO2)c2ccccc21 (configuration not stated)
  101 | 82 | 104 | 5
N#Cc1c(N)n[nH]c1CCCNC(=O)C1c2ccccc2Oc2ccccc21
  83 | 81 | nt | -29
CCc1ccc(CN(Cc2cn[nH]c2-c2ccc(OC)cc2)C(=O)Nc2cc(Cl)ccc2OC)cc1
  114 | 96 | 99 | -7
CCn1c(=O)oc2cc(NS(=O)(=O)c3ccc4c(c3)n(C)c(=O)n4C)ccc21
  nt | nt | 103 | -6
CCN1CCN(C(=O)c2cc(=O)n(C)c3c2c(=O)n(C)c(=O)n3C)CC1
  nt | nt | 101 | -8
CCN(CC)c1ccc(CNC(CC(=O)O)c2cccs2)cc1 (configuration not stated)
  96 | 84 | 96 | -32
Cc1ccc(Cn2cccc2C2=NC(C)(C)CO2)cc1
  99 | 97 | 104 | -13
C=Cn1cc[n+](CC(=O)c2ccc(OC)cc2)c1
  84 | 100 | 105 | -13
Nc1nonc1/C(=N/O)N1CCCCC1
  90 | 117 | nt | 0
CC(C)(C)c1ccc(OCc2ccc(-c3nnco3)cc2)cc1
  98 | 92 | nt | -15

New compounds follow
Results follow in this order: Sa growth 42C | Sa growth 42C second temp | GIV Gai3 FP | HCMV NEC inh
CCN(Cc1ccccc1)C(=O)c1nc(-c2ccc(Cl)cc2)n2c1CCCCC2
  57 | 41 | 102 | nt
CCCN1CCC(NC2CCCc3ccccc32)CC1 (configuration not stated)
  99 | 83 | 98 | -14
CCn1c(=O)n(-c2ccc(C)c(C)c2)c2nc(-c3ccc(C)c(C)c3)nc(C(N)=O)c21
  nt | nt | 108 | -26
CCc1c(O)nc(SCC(=O)N2CCOCC2)n(-c2ccccc2C)c1=O
  98 | 76 | 97 | -7
O=C(CCc1nc2ccccc2s1)N1CCc2ccccc21
  109 | 87 | nt | -17
CC1CCN(S(=O)(=O)N2CCC(C(=O)O)CC2)CC1
  113 | 97 | 99 | -10
Cc1cc(C)c(C#N)c(Sc2ncnc3c2nnn3Cc2ccccc2)n1
  118 | 90 | 104 | 1
Cc1cc(C)n(-c2ncc(S(=O)(=O)c3ccc(Cl)cc3)c(N)n2)n1
  120 | 100 | 103 | 18
C/C(=N\O)C(=O)Nc1cccc(C(F)(F)F)c1
  115 | 94 | 110 | -12
CCCn1c(Cn2ccnc2C)nc2cc(NC(=O)c3ccccc3C)ccc21
  nt | nt | 101 | -16
Cc1ccc(C)n1-c1nn(S(=O)(=O)c2ccccc2)c2cccc(F)c12
  78 | 89 | 105 | -16
COc1ccc(OC)c(NC(=O)CCn2cnc3ccccc3c2=O)c1
  83 | 88 | 99 | 3
Cc1c(C(=O)OCCOc2ccccc2)[nH]c2c1C(=O)CC(c1ccc(C(C)(C)C)cc1)C2 (configuration not stated)
  107 | 91 | 106 | -5
COc1ccc(C(=O)NCc2cccnc2)cc1C(=O)NCc1cccnc1
  91 | 86 | 99&107 | -57&-16&-21
CC(=O)N1CCc2cccc(N)c21
  112 | 89 | 107 | -5
Cc1ccc(C(=O)Nc2nc3ccccc3n3nnnc23)cc1
  99 | 97 | nt | 6
CC1(O)CC(=O)N(c2ccccc2)O1 (configuration not stated)
  100 | 92 | 106 | 4
CC(=O)NC1C(=O)N(Cc2ccccc2)c2c(C)ccc(Cl)c21 (configuration not stated)
  82 | 67 | 102 | -33
CC(C)c1cc(C(=O)NCc2cccnc2)no1
  114 | 90 | 102 | -10
CC1CCCCC1NC(=O)CSCC(=O)O (configuration not stated)
  101 | 94 | nt | 3

Source: PubChem (ICCB-Longwood Screening Facility, Harvard Medical School)
